Compound activity deposited in PubChem BioAssay by several laboratories.
B2AR ag = human beta-2 adrenergic receptor agonism by FAP; AID 504454; Am2.2-beta2AR cells, FAP receptor internalization, flow cytometry; reference of the scale not given here; P07550; 0.43% of 340,000 active; response, % (no concentration beside the values);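 active = response above a set limit, near 3 SD of response in nonfluorescent compounds, cut at about 42% in these data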;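 also: stock transfer was 100 nL into about 11 µL; a reference agonist was the positive control; negative values mostly stem from fluorescent compounds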
Target sequence (P07550 whole entry, looked up): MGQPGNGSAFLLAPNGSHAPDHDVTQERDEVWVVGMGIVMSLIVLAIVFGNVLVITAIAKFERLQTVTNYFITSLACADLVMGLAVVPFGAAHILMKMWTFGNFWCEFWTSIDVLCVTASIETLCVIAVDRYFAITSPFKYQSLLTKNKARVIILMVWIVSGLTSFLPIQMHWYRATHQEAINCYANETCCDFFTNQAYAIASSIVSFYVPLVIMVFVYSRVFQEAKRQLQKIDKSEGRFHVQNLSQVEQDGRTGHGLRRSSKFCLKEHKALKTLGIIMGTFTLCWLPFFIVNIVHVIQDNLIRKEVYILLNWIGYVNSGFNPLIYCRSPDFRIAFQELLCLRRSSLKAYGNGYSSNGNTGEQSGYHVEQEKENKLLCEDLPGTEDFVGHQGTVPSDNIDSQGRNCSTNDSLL
T cruzi repl = blocks replication of Trypanosoma cruzi. 1.4% of 300,000 active. inhibition, % (test concentration not listed). T. cruzi beta-gal in NIH3T3, luminescence, 90 h;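 active = mean inhibition across valid replicates above about 55%, limit read from the data; inconclusive = mean below that limit but half or more replicates reach it; inactive = mean below it, under half of replicates reach it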;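 also: signal also drops with host cell toxicity which is not excluded here; 0% = plate median of DMSO wells and 100% = zero luminescence signal; higher percent means less beta-gal luminescence so fewer parasites; stock transfer was 50 nL into about 50 µL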
RanGTP-Imp inh = disruptors of Ran-importin-beta complex formation – biochemical, FRET, CFP-Ran, YFP-importin-beta, homogeneous, primary screen. cell-free CFP-Ran/YFP-importin-beta FRET ratio. inhibition, % (test concentration not listed). 1.1% of 300,000 active. AID 2216;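 active = most replicates above 15%; inconclusive = exactly half above 15%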;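 also: 0% = DMSO wells and 100% = Ran loaded with GDP instead of GTP; wells of about 40 µL received 100 nL stock; the first replicate is given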
UCH37 DUB inh = blocks the human deubiquitinase UCH37. purified proteasome/UCH37, Ub-AMC cleavage fluorescence. 0.33% of 330,000 active. Q9Y5K5. inhibition, % (concentration not given with the values);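 active = mean of two replicates above 20%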;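 also: 0% = compound-free wells with enzyme and 100% = wells lacking proteasome; stock transfer was 100 nL into about 20 µL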
Target sequence (Q9Y5K5 whole entry, looked up): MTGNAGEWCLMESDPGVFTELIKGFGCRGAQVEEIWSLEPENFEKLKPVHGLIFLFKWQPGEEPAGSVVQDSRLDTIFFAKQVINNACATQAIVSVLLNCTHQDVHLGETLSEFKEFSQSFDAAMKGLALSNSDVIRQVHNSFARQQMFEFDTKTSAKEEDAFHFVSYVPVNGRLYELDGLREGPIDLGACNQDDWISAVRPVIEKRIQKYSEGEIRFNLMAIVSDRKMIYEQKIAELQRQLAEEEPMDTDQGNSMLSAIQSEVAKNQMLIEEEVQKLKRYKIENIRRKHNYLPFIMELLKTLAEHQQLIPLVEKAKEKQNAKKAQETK
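Material: human UCH37 enzyme supplied as purified proteasome complex / Amount: 0.15 nM proteasome as dispensed / Buffer or medium: pH 7.4 Tris-HCl (50 mM) with ovalbumin, ATP-MgCl2, DTT / Times: preincubation 30 min, reaction 25 min, room temperature / Technique: AMC fluorescence from Ub-AMC cleavage, excitation 355 nm, emission 460 nm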
LANA-H2A inh = blocks KSHV LANA binding to histone H2A/H2B; 0.6% of 320,000 active; Q9QR71; cell-free LANA-H2A/H2B peptide, fluorescence polarization; inhibition, % (no concentration beside the values); AID 2629; in the data active = inhibition mostly above about 10%, no sharp cut-off; inactive = mostly below about 6.7%;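 also: stock transfer was 7.5 nL into about 10 µL; 0% = median of vehicle wells and 100% = median of positive control wells; one replicate is shown; the record names a cut of 25% in any replicate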
Calb FLC = C. albicans growth modulation with fluconazole; 0.57% of 300,000 active; growth inhibition, % (concentration not given with the values); C. albicans CaCi-2 (fluconazole-resistant clinical isolate) + fluconazole, Alamar Blue growth, 48 h; AID 1979;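 active = most replicates above 75%; inconclusive = exactly half above 75%; inactive = most below 75%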;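 also: all wells also contain fluconazole at 8 µg/ml as a sub-toxic cotreatment; 0% = median of DMSO wells and 100% = median of geldanamycin control wells; wells of about 8 µL received 7.5 nL stock; the first replicate is given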
Beta cell apopt = blocks beta cell apoptosis; AID 435005; 0.8% of 300,000 active; protection from apoptosis, % (test concentration not listed); INS-1E cytokine-induced death, ATP luminescence, 48 h; percent of positive-control rescue, neutral wells zero;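 active = all replicates at 75% or more, or half of them and the mean; inconclusive = half reach 75% but not the mean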;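 also: 0% = cytokine-treated negative control wells and 100% = positive control rescue; higher means more ATP so stronger rescue from cytokine killing; wells of about 40 µL received 100 nL stock; the first replicate is given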
Bfl-1 A1 inh = inhibitors of the anti-apoptotic protein A1, read as caspase activation | MEF A1-2A-BIM cells, Caspase-Glo 3/7 luminescence, 3 h; percent of clofoctol response, vehicle zero | caspase activation, % (concentration not given with the values) | 0.066% of 330,000 active | AID 2462;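 active = over half of replicate activation scores above 10%, or exactly half above 10 with the replicate mean above 10; inconclusive = replicate mean below 10 yet half the replicates above 10; inactive = over half of replicates below 10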;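 also: wells of about 30 µL received 50 nL stock; many hits fall short of the cut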
* marks the source's active call; other numbers are inactive results; ? = inconclusive; . = not tested or not shown.

structure | Bfl-1 A1 inh | UCH37 DUB inh | RanGTP-Imp inh | T cruzi repl | LANA-H2A inh | Beta cell apopt | B2AR ag | Calb FLC
CC(=O)c1c(N2CCN(c3ccc(F)cc3)CC2)nc(=S)n(-c2ccccc2)c1C | -1.1 | 1.3 | ? | -4 | -3.1 | 0 | 32 | 7
CCc1ccc(C(=O)NNc2cc(Cl)ccc2Cl)cc1 | -0.2 | 2.1 | -0.4 | . | -1.3 | 92* | 13 | 0
Nn1c(SCC(=O)N2CCOCC2)nnc1-c1ccc(Cl)cc1Cl | 0.0 | 1.1 | 2.6 | -13 | 0.8 | 7 | 7 | -8
O=C(CSc1cn(CCNC(=O)c2cccs2)c2ccccc12)NC1CCCCC1 | -0.1 | 4.2 | -5.5 | -1 | 0.6 | -3 | -11 | 2
CCCc1cc(=O)oc2cc(C)cc(OC(C)C(=O)N[C@@H](Cc3c[nH]c4ccccc34)C(=O)O)c12 (stereo not given in full) | 0.0 | 2.1 | -2.2 | -2 | -0.5 | 5 | 8 | -1
CCCN(CCC)C(=O)CSc1ncccc1C(=O)O | 0.1 | 0.1 | -9.6 | -15 | -2.8 | -4 | 8 | -5
OC(COc1ccc(Cl)cc1)CN1CCN(c2cccc(Cl)c2)CC1 (stereo not given) | 0.6 | 3.5 | -2.3 | -1 | -0.1 | -2 | 4 | -18
CCN(C(=O)COC(=O)c1ccc(O)cc1O)c1c(N)n(Cc2ccccc2)c(=O)[nH]c1=O | 0.5 | 2.9 | . | . | 15 | -4 | -5 | .
CC(C1CC1)N(C(=O)NC1CCS(=O)(=O)C1)c1ccccc1 (stereo not given) | -0.1 | -0.9 | 0.0 | -3 | -1.3 | -1 | -1 | -3
CN(c1ccccc1)S(=O)(=O)c1cccc(NC(=O)CN2C(=O)NC3(CCCCC3)C2=O)c1 | 0.7 | . | . | . | -3.0 | -8 | -1 | .
CCOC(=O)CCc1c(C)c(C#N)c2nc3ccccc3n2c1-n1ccnc1C | -0.6 | -6.3 | -2.2 | 5 | -1.2 | 7 | 14 | -14
Cc1cnc(NS(=O)(=O)c2ccc(Cl)cc2)c(Br)c1 | -0.3 | 3.5 | ? | 7 | -5.0 | 1 | -6 | 22
COc1nc(N)nc(CC(=O)C2CC2)n1 | -0.9 | 5.8 | 1.9 | -6 | 0.4 | 4 | 0 | -1
CCc1ccc(-c2csc(NC(=O)C3=NN(c4ccccc4)C(=O)CC3)n2)cc1 | -0.6 | 0.9 | ? | -3 | 3.2 | 5 | 5 | -15
C/C(=N\NC(=S)Nc1cc(S(=O)(=O)N2CCOCC2)ccc1Cl)c1ccc(N2CCOCC2)cc1 | 0.2 | . | -0.8 | 44 | -0.1 | 1 | 7 | -2
CCCOc1ccc(C(=O)C(CN2CCCC2)c2ccccc2)cc1 (stereo not given) | 0.0 | 2.6 | 3.8 | -2 | 2.4 | 0 | 2 | 26
Cc1ccc(-n2[nH]c(C)c(C=Nc3ccc(S(=O)(=O)Nc4nc(C)cc(C)n4)cc3)c2=O)c(C)c1 | 0.1 | 7.8 | 0.1 | -9 | 4.6 | -9 | 3 | -3
CCOc1ccc2ccccc2c1/C=N/NC(=O)c1cc(C)[nH]n1 | 2.0 | . | -0.8 | -15 | 5.3 | 1 | 2 | -2
Cc1onc(C(=O)N2C(C)CCCC2C)c1[N+](=O)[O-] (stereo not given) | -0.9 | 4.5 | 2.3 | -2 | 3.9 | -7 | -3 | -24
COc1cc2c(cc1NC(=O)CCCCCN1C(=O)CCC1=O)oc1ccccc12 | -0.3 | 3.3 | 3.4 | 10 | -3.3 | 4 | 5 | -1
Nc1nnc(CSc2ccc(Cl)cc2)s1 | -1.3 | -2.7 | 3.3 | -11 | -0.9 | -23 | 8 | ?
O=C(O)CSc1nc(-c2ccc(Cl)cc2)nc2c1oc1ccccc12 | -0.1 | 3.9 | -3.3 | 11 | . | -4 | 2 | 74
O=C(Cn1cc(S(=O)(=O)Cc2cccc(F)c2)c2ccccc21)N1CCOCC1 | 0.4 | 0.2 | 0.7 | 0 | 2.9 | . | -4 | 5
CC(C)c1ccc(CC(C)C2C3=C(CCCC3=O)OC3=C2C(=O)CCC3)cc1 (stereo not given) | -1.2 | 1.8 | -1.4 | 20 | -3.8 | 12 | -10 | -2
O=C(O)CCC(=O)Nc1ccc(Br)cn1 | 0.0 | 4.0 | . | . | 6.0 | -3 | 1 | -1
COC(=O)c1cc(C(=O)OCC(=O)c2ccc[nH]2)cc([N+](=O)[O-])c1 | 0.7 | 2.3 | . | . | -10 | 0 | 8 | .
O=C(NNC(=O)c1ccccc1[N+](=O)[O-])c1ccc(NC(=O)c2ccccc2)cc1 | 0.4 | 3.7 | -1.3 | -3 | 4.8 | -5 | -2 | 0
COCCNC(=S)N1CCN(Cc2cccc(OC)c2)CC1 | 0.5 | 1.4 | -0.7 | -2 | 0.8 | 0 | -4 | -5
Cc1ccc(S(=O)(=O)N/N=C/c2cccn2-c2ccc(Cl)cc2)cc1 | 0.7 | . | -0.5 | -28 | -4.4 | . | -5 | 20
Cc1ccc(NS(=O)(=O)c2ccc(-c3ccc(=O)[nH]n3)o2)cc1 | 0.2 | 0.8 | 0.4 | -6 | -6.3 | -7 | 6 | 21
Cc1cc(-c2nnc(SCC(=O)Nc3ccccc3C(F)(F)F)n2N)n[nH]1 | -1.1 | 0.9 | -0.6 | -6 | -1.4 | -7 | 5 | -8
Cc1ccc(C(=O)N/C(=C\c2sccc2C)C(=O)NCCCN2CCOCC2)cc1 | 3.0 | 7.0 | -1.1 | -1 | 1.7 | -4 | -1 | 4
C[C@]1(C(=O)NCCCNc2ncc(C(F)(F)F)cc2Cl)C=C[C@@H](Cc2ccccc2)N1C(=O)c1ccccc1 | -0.6 | 2.2 | -5.0 | 31 | 1.2 | -3 | 2 | -1
O=C(CSc1nc2c(sc3ccccc32)c(=O)n1CCCN1CCCC1)NCc1ccccc1 | 0.0 | -13 | -0.5 | 7 | 3.3 | . | 12 | -9
CCOc1ccc(N/C(SC)=C(/C#N)C(N)=O)cc1 | 0.4 | 5.1 | 9.5 | 23 | 3.7 | -4 | 3 | 7
O=C(CN1C(=O)CCSc2ccccc21)Nc1ccc2c(c1)OCCO2 | -0.5 | 0.6 | ? | -11 | -1.6 | 2 | 1 | -22
Cn1cccc1C(=O)NC(=O)COC(=O)CC12CC3CC(CC(Br)(C3)C1)C2 | -0.1 | 1.6 | -2.1 | -16 | 5.2 | -2 | -6 | -1
CCOC(=O)C1CCCN(C(=O)COc2ccccc2O)C1 (stereo not given) | 0.1 | 0.2 | -2.6 | -3 | -5.8 | -4 | 3 | -1
O=C(Nc1ccc2c(c1)OCO2)C1CC(=O)N(c2ccc3c(c2)OCCO3)C1 (stereo not given) | -1.6 | 1.5 | 2.8 | -5 | -0.2 | 2 | -2 | -11
CC(=O)Nc1nc2ccccc2n1CCN(C)C | 0.6 | 3.1 | 3.1 | 1 | -9.1 | -5 | -6 | -4
COc1cccc(-n2c(Cc3cc(=O)[nH]c(=O)[nH]3)nnc2SC(C)C)c1 | 0.4 | 4.6 | 1.7 | -15 | 0.3 | -6 | 8 | 0
Cc1cnc(CN2CCCC(C(=O)c3ccc4c5c(cccc35)CC4)C2)[nH]1 (stereo not given) | 1.7 | -57 | 0.8 | 2 | 2.4 | . | -2 | -38
CC(NC(=O)C1CCC1)c1ccc(Cl)cc1 (stereo not given) | 0.2 | 3.2 | 2.1 | -2 | 5.5 | -8 | 4 | -6
Cc1ccc(Oc2nc3ccccc3n3c(C)nnc23)c(C)c1 | 0.8 | 3.4 | 2.9 | 5 | 3.0 | -3 | -16 | -8
CN1CCN(CC(=O)NC23CC4CC(CC(C4)C2)C3)CC1 | 0.6 | 3.5 | 1.3 | 51 | -3.3 | 2 | -5 | -1
O=C(NCc1ccc(F)cc1)c1cc2c(s1)CCCC2 | -1.4 | 6.2 | ? | -33 | 3.1 | 1 | -4 | 25
Cn1nnnc1SCc1nc2scc(-c3ccccc3)c2c(=O)[nH]1 | -7.1 | 3.0 | -4.5 | -10 | -7.2 | 1 | 0 | -15
COC(=O)c1sccc1NC(=O)Nc1ccc(OC)cc1OC | 0.4 | 4.6 | 2.6 | -3 | -1.8 | -3 | -2 | 0
CCOC(=O)N1CCN(C(=O)c2ccc(OC)c(OC)c2)CC1 | 1.4 | 3.8 | 5.5 | -5 | -3.2 | 1 | 4 | 7
COC(=O)C1=CO[C@@H](O[C@@H]2O[C@H](CO)[C@@H](O)[C@H](O)[C@H]2O)C2C(CO)=CCC12 (stereo not given in full) | 0.9 | -0.8 | . | . | 4.4 | -5 | -7 | .
Cc1ccc(OCC(=O)c2c[nH]c3ccccc23)c([N+](=O)[O-])n1 | 0.2 | 3.2 | -1.9 | -7 | 0.7 | 0 | -5 | -3
COC(=O)c1ccc(NC(=O)c2ccccc2NS(C)(=O)=O)cc1 | -0.7 | 3.4 | 0.8 | 7 | 3.3 | 18 | 2 | -1
COc1ccc(NS(=O)(=O)c2cc(NC(=O)Cn3cnc4c3c(=O)n(C)c(=O)n4C)ccc2C)cc1 | -0.4 | 6.2 | 0.9 | -2 | -4.7 | 1 | -7 | -1
COc1ccc2[nH]c(C)c(CCNC(=S)Nc3cc(C)ccc3C)c2c1 | -0.3 | 2.2 | -0.2 | 9 | -1.7 | . | 3 | -7
O=C(Cc1cccc2ccccc12)N/N=C/c1ccc2cccc(O)c2n1 | -0.1 | . | -2.1 | -13 | -3.2 | 2 | 21 | 2
CCOc1ccc(N(C(C)=O)c2nc(C)cc(C)c2C#N)cc1 | 0.5 | -0.5 | 13 | -38 | -2.7 | -4 | -16 | 25
O=S(=O)(Nc1nc2ccccc2s1)c1ccc(Cl)s1 | 0.3 | 0.2 | -2.2 | -2 | -3.5 | 81* | 13 | 32

Sorted by count of non-hydrogen atoms (highest first): three of the compounds above.
structure | Bfl-1 A1 inh | UCH37 DUB inh | RanGTP-Imp inh | T cruzi repl | LANA-H2A inh | Beta cell apopt | B2AR ag | Calb FLC
COc1ccc(NS(=O)(=O)c2cc(NC(=O)Cn3cnc4c3c(=O)n(C)c(=O)n4C)ccc2C)cc1 | -0.4 | 6.2 | 0.9 | -2 | -4.7 | 1 | -7 | -1
COC(=O)C1=CO[C@@H](O[C@@H]2O[C@H](CO)[C@@H](O)[C@H](O)[C@H]2O)C2C(CO)=CCC12 (stereo not given in full) | 0.9 | -0.8 | . | . | 4.4 | -5 | -7 | .
Cc1ccc(OCC(=O)c2c[nH]c3ccccc23)c([N+](=O)[O-])n1 | 0.2 | 3.2 | -1.9 | -7 | 0.7 | 0 | -5 | -3
